Source: PubChem BioAssay (Broad Institute)
Vaccinia inh = Vaccinia orthopox stage-specific inhibition. Vaccinia-infected cells, mCherry/Venus stage reporter fluorescence; active compounds read low; some inactives read as strong as hits. activity change (mCherry), % (concentration not given with the values). hit rate 0.01% among 89,000. AID 1053133;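 active = mCherry past -33% and 40 or more points under the early reporter, replicates agreeing; inconclusive = past -33% without that gap or agreement; tested in A549 cells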;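 note: scaled between vehicle wells and reference inhibitor wells; 23 nL library stock went into each well; one replicate is shown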
Vaccinia inh Venus = further read-out of Vaccinia inh, marked with its call; activity change (Venus), %; measured here: Venus reporter, other viral stage;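 negative = less Venus signal; first of two replicates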
* hit, by the source's call; ? = inconclusive; nt = not tested or not shown. These rows are one share of the data; count on the stated rates, not on these rows.

SMILES | Vaccinia inh | Vaccinia inh Venus
CC(C)C#Cc1ccc2c(c1)O[C@H](CN(C)S(=O)(=O)c1cn(C)cn1)[C@H](C)CN([C@@H](C)CO)S2(=O)=O | -8 | -17
OC[C@@H]1[C@H](c2ccc(-c3ccccc3F)cc2)[C@@H]2CN(Cc3cccnc3)CCCCN12 | 1 | -11
O=C(Nc1ccc(F)cc1)N[C@@H]1CC[C@H](CCNS(=O)(=O)c2cccc(Cl)c2)O[C@H]1CO | -18 | -19
CO[C@@H]1CN(C)C(=O)c2cc(NC(=O)C3CCCC3)ccc2OC[C@@H](C)N(S(C)(=O)=O)C[C@@H]1C | 13 | 6
COCC(=O)Nc1ccc2c(c1)C(=O)N(C)[C@@H]1CC[C@@H](CC(=O)Nc3ccccc3)O[C@@H]1CO2 | 8 | 5
C[C@@H]1CN([C@H](C)CO)C(=O)Cc2cc(NC(=O)CCC(F)(F)F)ccc2O[C@@H]1CN(C)Cc1ccc(C(F)(F)F)cc1 | -28 | -18
O=C(C[C@H]1CC[C@@H]2[C@H](COC[C@H](O)CN2Cc2ccc3c(c2)OCO3)O1)N1CCCCC1 | 3 | 13
C[C@H](NC(=O)C[C@H]1C=C[C@@H](NC(=O)C2CCC2)[C@H](CO)O1)c1ccccc1 | -6 | 1
COc1ccc2c3c([nH]c2c1)[C@H](CO)N(C(=O)C1CCCC1)CC31CCN(Cc2nccs2)CC1 | -27 | -22
CCCC#Cc1ccc([C@H]2[C@@H](CO)N3CCCCN(Cc4cncnc4)C[C@@H]23)cc1 | 1 | 4
C[C@@H]1CN([C@@H](C)CO)C(=O)c2cc(N(C)C)ccc2O[C@H]1CN(C)C(=O)Nc1ccc2c(c1)OCO2 | 8 | 4
C/C=C/c1ccc2c(c1)O[C@H](CN(C)C(=O)Cc1ccncc1)[C@H](C)CN([C@H](C)CO)S2(=O)=O | -5 | 4
CCC(=O)N(C)C[C@H]1[C@H](c2ccc(C3=CCCC3)cc2)[C@@H](CO)N1C(=O)CC | 9 | 14
CN(C)C(=O)C[C@H]1C=C[C@H](NC(=O)C2CCC2)[C@H](CO)O1 | 2 | 1
COc1ccc2c3c([nH]c2c1)[C@H](CO)N(C(=O)NC(C)C)CC31CCN(C(=O)c2ccccn2)CC1 | 21 | 0
O=C([C@H]1[C@H](CO)[C@H]2Cn3c(cccc3=O)[C@H]2N1CC1CC1)N1CCc2ccccc2C1 | 13 | 10
CCN1[C@@H]2c3ccc(-c4cccnc4)c(=O)n3C[C@@H]2[C@@H](CO)[C@@H]1C(=O)NC1CCCCC1 | 2 | -4
N#C[C@H]1[C@@H](c2ccccc2-c2cccc(F)c2)[C@H](CO)N1C(=O)C1CCC1 | 14 | 13
COc1ccc2c3c(n(C)c2c1)[C@@H](CO)N(C(=O)c1cccc(F)c1)CC31CCN(C(=O)c2cccc(F)c2)CC1 | -25 | -16
CC(C)NC(=O)Nc1ccc2c(c1)C(=O)N([C@H](C)CO)C[C@H](C)[C@H](CN(C)S(=O)(=O)c1ccc(Cl)cc1)O2 | -3 | 2
O=C(NC1CCCCC1)N1CC2(C1)[C@H](c1ccccc1)[C@H](CO)N2CC1CCCC1 | -21 | -16
CN1c2ccc(-c3ccc(F)cc3)cc2[C@H]2[C@H](CCN2C(=O)Nc2cc(F)ccc2F)[C@H]1CO | ? | nt
O=C(c1ccncc1)N1CC(=O)N2[C@H](CO)[C@@H](c3ccc(-c4ccccc4)cc3)[C@@H]2C1 | -1 | -1
CC(=O)N1[C@@H]2c3ccc(C4=CCCC4)c(=O)n3C[C@H]1[C@H](CO)[C@H]2C(=O)N[C@H](C)c1ccccc1 | 12 | 6

No new results follow: entries from further up.
SMILES | Vaccinia inh | Vaccinia inh Venus
CCC(=O)N(C)C[C@H]1[C@H](c2ccc(C3=CCCC3)cc2)[C@@H](CO)N1C(=O)CC | 9 | 14
CN(C)C(=O)C[C@H]1C=C[C@H](NC(=O)C2CCC2)[C@H](CO)O1 | 2 | 1
COc1ccc2c3c([nH]c2c1)[C@H](CO)N(C(=O)NC(C)C)CC31CCN(C(=O)c2ccccn2)CC1 | 21 | 0

(further entries)
SMILES | Vaccinia inh | Vaccinia inh Venus
COc1ccccc1C#Cc1ccc([C@H]2[C@H](C#N)N(C(=O)C3CC3)[C@H]2CO)cc1 | ? | nt
CCCC#Cc1cnc2c(c1)C(=O)N([C@H](C)CO)C[C@H](C)[C@@H](CN(C)Cc1ccc(F)cc1)O2 | -1 | 3
O=C(CN1CCOCC1)NCC[C@H]1CC[C@H](NC(=O)Nc2ccc(Cl)cc2)[C@H](CO)O1 | 3 | 12
CC(C)CC#Cc1ccc2c(c1)O[C@@H](CN(C)Cc1cncnc1)[C@H](C)CN([C@H](C)CO)S2(=O)=O | ? | nt
COCCN(C[C@H]1[C@@H](c2ccccc2)[C@H](CO)N1C(C)=O)C(=O)c1ccncc1 | 11 | 9
C[C@@H]1CN([C@H](C)CO)C(=O)c2cc(NS(=O)(=O)c3ccccc3)ccc2O[C@H]1CN(C)Cc1ccc(C(=O)Nc2ccccc2N)cc1 | 19 | 12
COc1ccc(C#Cc2ccc([C@H]3[C@H](CO)N4CCCCN(S(=O)(=O)c5cn(C)cn5)C[C@@H]34)cc2)cc1 | -18 | -17
C[C@H]1CN([C@@H](C)CO)C(=O)c2cc(NC(=O)C3CCCCC3)ccc2O[C@H]1CN(C)C(=O)Nc1ccccc1 | 8 | 5
Cc1ccccc1S(=O)(=O)N1CCCCN2[C@H](CO)[C@H](c3ccc(-c4cccc(F)c4)cc3)[C@H]2C1 | ? | nt
C[C@H](CO)N1C[C@H](C)[C@H](CN(C)S(=O)(=O)c2ccc(Cl)cc2)OCc2ccccc2-c2ccccc2C1=O | ? | nt
Cc1noc(C)c1NC(=O)N[C@H]1C=C[C@H](CC(=O)N2CCN(C)CC2)O[C@@H]1CO | 7 | 4
CCCNC(=O)N1C[C@H]2[C@@H](c3ccccc31)[C@@H](CO)N2Cc1ccccc1F | 7 | 2
C[C@@H]1CN([C@@H](C)CO)C(=O)c2cc(C#C[C@@H](C)O)cnc2O[C@H]1CN(C)C(=O)c1ccncc1 | 28 | 21
Cc1ccc(S(=O)(=O)Nc2ccc3c(c2)C(=O)N([C@@H](C)CO)C[C@H](C)[C@H](CN(C)S(=O)(=O)c2cn(C)cn2)OCCCC[C@@H](C)O3)cc1 | 5 | 2
C[C@@H]1CN([C@H](C)CO)C(=O)c2cccc(NC(=O)c3cnccn3)c2O[C@H]1CN(C)C | 17 | 3
C[C@@H]1CN([C@H](C)CO)S(=O)(=O)c2ccc(C#Cc3ccccc3F)cc2O[C@@H]1CN(C)C(=O)Cc1cccnc1 | ? | nt
O=C(C[C@@H]1CC[C@H]2[C@@H](COC[C@@H](O)CN2C(=O)Nc2ccc(Cl)c(Cl)c2)O1)NCc1ccc(Cl)cc1 | ? | nt
Cc1ccccc1S(=O)(=O)N1C[C@H](O)COC[C@H]2O[C@H](CC(=O)N3CCN(C)CC3)CC[C@@H]21 | -1 | -4
COc1ccc2c3c(n(C)c2c1)[C@H](CO)N(C(=O)Nc1ccc(F)cc1)CC31CCN(C)CC1 | ? | nt
C[C@H](CO)N1C[C@H](C)[C@@H](CN(C)S(=O)(=O)c2cn(C)cn2)Oc2ccc(NC(=O)C3CCCCC3)cc2CC1=O | 13 | 8
Cc1ccc(S(=O)(=O)Nc2ccc3c(c2)CC(=O)N([C@H](C)CO)C[C@@H](C)[C@H](CN(C)C)O3)cc1 | 10 | 8
CCS(=O)(=O)N1CC2(CN(C(=O)c3ccc(F)cc3)[C@@H](CO)c3[nH]c4cc(OC)ccc4c32)C1 | 8 | -5
O=C(C[C@@H]1C[C@@H]2c3cc(NC(=O)Cc4ccncc4)ccc3O[C@@H]2[C@@H](CO)O1)NCc1ccccc1 | 8 | 12
O=C(C[C@H]1C[C@H]2c3cc(NC(=O)c4ccc5c(c4)OCO5)ccc3O[C@H]2[C@H](CO)O1)NCCN1CCCCC1 | 19 | 17
Cc1ccc(S(=O)(=O)Nc2ccc3c(c2)C(=O)N([C@@H](C)CO)C[C@H](C)[C@@H](CN(C)S(=O)(=O)c2cn(C)cn2)OCCCC[C@H](C)O3)cc1 | 6 | 4
C[C@H](CO)N1C[C@H](C)[C@H](CN(C)C)OCCCC[C@H](C)Oc2ccc(NC(=O)Cc3ccccc3)cc2C1=O | -10 | -8
C/C=C/c1ccc2c(c1)O[C@@H](CN(C)Cc1ccccc1F)[C@@H](C)CN([C@@H](C)CO)S2(=O)=O | 7 | 1
O=C(C[C@@H]1C=C[C@@H](NC(=O)Nc2ccccc2F)[C@@H](CO)O1)NCc1ccccc1 | 12 | 6
COCC(=O)N1CCCCN2[C@H](CO)[C@@H](c3ccc(-c4cccc(C)c4)cc3)[C@@H]2C1 | 7 | 1
C[C@H](NC(=O)C[C@H]1C=C[C@@H](NC(=O)Nc2ccc3c(c2)OCO3)[C@H](CO)O1)c1ccccc1 | -5 | 5
O=C(CN1CCOCC1)N[C@@H]1CC[C@H](CCn2cc(C3CCCCC3)nn2)O[C@@H]1CO | 10 | 3
O=C(C[C@H]1C=C[C@@H](NC(=O)c2ccncc2)[C@H](CO)O1)NCC1CCCCC1 | 9 | 5
CCCNC(=O)N1CC2(C1)CN(Cc1cccc(OC)c1)[C@@H](CO)c1[nH]c3cc(OC)ccc3c12 | 20 | 5
COc1cccc(NC(=O)N(C)C[C@@H]2Oc3cc(C#Cc4ccc(F)cc4)ccc3S(=O)(=O)N([C@@H](C)CO)C[C@H]2C)c1 | ? | nt
C[C@@H]1CCCCO[C@@H](CN(C)C(=O)Nc2ccc3c(c2)OCO3)[C@@H](C)CN([C@H](C)CO)C(=O)c2cc(NC(=O)c3ccncc3)ccc2O1 | 1 | 1
C/C=C/c1ccc([C@H]2[C@@H](CN(C)S(C)(=O)=O)N(C(=O)CC)[C@H]2CO)cc1 | 9 | 6
Cn1cnc(S(=O)(=O)N2CCCCN3[C@H](CO)[C@H](c4ccc(-c5ccc(F)cc5)cc4)[C@H]3C2)c1 | 7 | -15
Cc1noc(C)c1S(=O)(=O)Nc1cccc2c1O[C@H](CN(C)Cc1ccc(C(=O)O)cc1)[C@H](C)CN([C@@H](C)CO)C2=O | 7 | 13
O=C(Cc1ccccn1)NCC[C@@H]1CC[C@@H](NC(=O)Nc2ccc(Cl)cc2)[C@H](CO)O1 | 18 | 22
COCc1cn(CC[C@@H]2CC[C@@H](NC(=O)c3ccncc3)[C@@H](CO)O2)nn1 | -10 | -6
CN1C(=O)c2cc(NC(=O)c3ccccc3Cl)ccc2OC[C@H]2O[C@@H](CC(=O)O)CC[C@@H]21 | 11 | 13
N#C[C@H]1[C@H](c2ccc(C#Cc3ccc(F)cc3)cc2)[C@H](CO)N1C(=O)C1CC1 | -16 | -14
CC(C)NC(=O)N(C)C[C@@H]1Oc2ncc(C#CC3CC3)cc2C(=O)N([C@@H](C)CO)C[C@@H]1C | 5 | 7
Cc1ccc(S(=O)(=O)Nc2ccc3c(c2)CC(=O)N([C@H](C)CO)C[C@@H](C)[C@@H](CN(C)C(=O)Nc2ccccc2)O3)cc1 | 14 | 2
C[C@@H]1CN([C@@H](C)CO)C(=O)c2cc(NC(=O)Cc3cn(C)c4ccccc34)ccc2O[C@H]1CN(C)Cc1ccc(C(=O)O)cc1 | 11 | 7
CN(C)CC(=O)N[C@H]1C=C[C@@H](CC(=O)NCCN2CCCCC2)O[C@@H]1CO | -6 | 3
CN1c2ccc(-c3ccccc3)cc2[C@H]2[C@H](CCN2C(=O)c2ccc3c(c2)OCO3)[C@H]1CO | -35 | -28
CO[C@H]1CN(C)C(=O)c2ccc(NS(C)(=O)=O)cc2OC[C@H](C)N(Cc2cccnc2)C[C@H]1C | 10 | 6

Pulled by compound from above (five):
SMILES | Vaccinia inh | Vaccinia inh Venus
COCc1cn(CC[C@@H]2CC[C@@H](NC(=O)c3ccncc3)[C@@H](CO)O2)nn1 | -10 | -6
OC[C@@H]1[C@H](c2ccc(-c3ccccc3F)cc2)[C@@H]2CN(Cc3cccnc3)CCCCN12 | 1 | -11
C[C@@H]1CN([C@@H](C)CO)C(=O)c2cc(N(C)C)ccc2O[C@H]1CN(C)C(=O)Nc1ccc2c(c1)OCO2 | 8 | 4
CN1c2ccc(-c3ccccc3)cc2[C@H]2[C@H](CCN2C(=O)c2ccc3c(c2)OCO3)[C@H]1CO | -35 | -28
COc1ccccc1C#Cc1ccc([C@H]2[C@H](C#N)N(C(=O)C3CC3)[C@H]2CO)cc1 | ? | nt

Further entries.
SMILES | Vaccinia inh | Vaccinia inh Venus
CC(C)NC(=O)N(C)C[C@@H]1Oc2ccc(NC(=O)CCN3CCOCC3)cc2CC(=O)N([C@H](C)CO)C[C@H]1C | 15 | 5
Cc1cccc(S(=O)(=O)N2C[C@@H]3N[C@H](C2)C3c2ccc(-c3cccc(C#N)c3)cc2)c1 (stereo partly drawn) | ? | 6
COc1ccccc1-c1cn(CC[C@H]2CC[C@@H](NC(=O)C3CCCC3)[C@H](CO)O2)nn1 | -2 | -2
Cc1ccccc1-c1cnc2c(c1)C(=O)N([C@H](C)CO)C[C@H](C)[C@@H](CN(C)Cc1ccncc1)O2 | -10 | -4
N#C[C@H]1[C@@H](c2ccc(C3=CCCC3)cc2)[C@@H](CO)N1C(=O)NC1CCCC1 | 20 | 9
O=C(Nc1ccc(F)cc1)N[C@H]1CC[C@@H](CCNS(=O)(=O)c2ccccc2F)O[C@@H]1CO | 8 | -1
CCC(=O)N(C)C[C@H]1Oc2ncc(/C=C/c3ccccc3)cc2C(=O)N([C@H](C)CO)C[C@@H]1C | 15 | -2
